High-throughput results: PubChem, several laboratories
GALR2 ag – activates the human galanin receptor 2; GALR2-expressing cells, agonist activation read-out; AID 803; 0.48% of 140,000 active; activation, %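 (tested at 5 µM)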; O43603;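 active means above mean plus 3 SD of all compounds, about 5% in these data, not always enough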;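 further: 0% = vehicle buffer wells and 100% = reference agonist at full effect; tested in CHO reporter cells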
Target sequence (O43603 whole entry, looked up): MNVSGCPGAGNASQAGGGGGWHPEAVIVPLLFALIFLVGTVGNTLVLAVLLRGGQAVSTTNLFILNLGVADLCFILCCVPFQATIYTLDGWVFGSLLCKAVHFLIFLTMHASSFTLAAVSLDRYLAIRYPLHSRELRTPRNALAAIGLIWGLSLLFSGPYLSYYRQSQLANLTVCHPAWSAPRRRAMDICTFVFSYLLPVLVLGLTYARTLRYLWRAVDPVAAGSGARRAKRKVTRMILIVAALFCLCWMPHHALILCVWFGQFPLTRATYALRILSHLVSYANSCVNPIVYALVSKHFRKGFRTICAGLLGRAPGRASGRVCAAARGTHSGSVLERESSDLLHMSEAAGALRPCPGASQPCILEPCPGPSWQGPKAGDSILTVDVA
HSV replic up – increases HSV replication in cells. HSV replication augmentation in cells, fold increase. maximum fold increase. 0.005% of 220,000 active. AID 1956;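 active means peak rise of 1.5-fold or more in the series; tested in PC3 cells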;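 further: first round at 10 µM; read as green reporter fluorescence; hits show the peak of a series up to 25 µM; 1 = signal of infected wells without compound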
RGS16-Gao HTS – regulators of human RGS16-Galphao interaction | O15492+P09471 | bead-based flow cytometry RGS16-Galphao binding, fluorescence; actives lie on both sides | binding response (% of control), % at 10 µM | 0.38% of 220,000 active | AID 1441;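 active means below 25% or above 175%, edge rows of some plates excepted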;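 further: Galphao activated by GDP with aluminum fluoride before binding; 100% = wells without compound and 0% = beads without RGS; some results beyond the cut were filed as inactive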
Target sequence (O15492 whole entry, looked up): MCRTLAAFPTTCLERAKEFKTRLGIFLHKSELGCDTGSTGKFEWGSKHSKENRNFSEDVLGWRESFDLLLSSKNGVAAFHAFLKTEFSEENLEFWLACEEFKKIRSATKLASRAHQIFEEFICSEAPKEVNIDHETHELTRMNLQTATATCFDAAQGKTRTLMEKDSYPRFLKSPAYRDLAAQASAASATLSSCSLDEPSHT
Target sequence (P09471 whole entry, looked up): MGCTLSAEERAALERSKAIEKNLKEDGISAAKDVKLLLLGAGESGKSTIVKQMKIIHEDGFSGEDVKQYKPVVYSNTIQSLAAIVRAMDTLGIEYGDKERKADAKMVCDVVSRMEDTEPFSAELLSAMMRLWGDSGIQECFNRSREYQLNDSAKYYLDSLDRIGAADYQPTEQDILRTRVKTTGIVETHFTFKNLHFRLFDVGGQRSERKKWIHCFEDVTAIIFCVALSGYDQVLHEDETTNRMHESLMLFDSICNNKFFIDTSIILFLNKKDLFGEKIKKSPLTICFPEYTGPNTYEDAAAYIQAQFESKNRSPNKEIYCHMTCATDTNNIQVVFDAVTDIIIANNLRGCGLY
PKD1 inh – inhibitors of human PKD1 kinase; inhibition, %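 (about 10 µM by stock and volumes)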; PKD1 kinase fluorescence polarization assay; AID 797; Q15139; 0.056% of 200,000 active;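 active means inhibition of 50% or more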;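 further: controls were vehicle for no effect and a reference inhibitor for full effect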
Insulin prom inh – TRM-6 insulin promoter activity inhibition. inhibition, % at 2 µM. 0.9% of 130,000 active. AID 1273. TRM-6 cells (human fetal islet line), insulin promoter-eGFP reporter, imaging; reporter expression induced with tamoxifen;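 active means inhibition above the mean plus 3 SD, with well images judged a real hit on visual review, cut at about 60% in these data, passing the limit was not always enough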
Insulin prom inh cell count – recorded beside Insulin prom inh, whose call it bears; normalized cell count, %; measured here: cell count, toxicity; reference of the scale not given here;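 cells exposed to compound for 48 h; stained nuclei by imaging scaled within each plate; lower means fewer cells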
HSV replic up primary fold – further read-out of HSV replic up, marked with its call; fold increase; compound at 10 µM; measured here: primary screen fold increase 10 uM; tested in PC3 cells;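 GFP signal in the first replicate; 1 = infected wells without compound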
Active calls of the source: *. Compounds as they come. Share with any hit: about 1.1%.

How did COc1ccc(-c2csc(C3=C(O)CN(C(C)C)C3=N)n2)cc1OC do in these assays?
HSV replic up: inactive; RGS16-Gao HTS: 102; PKD1 inh: 5; HSV replic up primary fold: 1.1

How did CCOc1ccc(NC(=O)c2ccc(-n3cccn3)nc2)cc1 do in these assays?
HSV replic up: inactive; RGS16-Gao HTS: 100; PKD1 inh: 4; HSV replic up primary fold: 0.99

What do the screens show for `Cc1ccc(NC(=O)NNC(=O)c2cccs2)cc1`?
GALR2 ag: -1.3; HSV replic up: inactive; RGS16-Gao HTS: 97; PKD1 inh: 4; Insulin prom inh: 3; Insulin prom inh cell count: 125; HSV replic up primary fold: 1

What do the screens show for `Cc1ccc(C(C(=O)NC(C)(C)C)N(Cc2cccs2)C(=O)c2csnn2)cc1` (stereo unspecified)?
GALR2 ag: 0.3; HSV replic up: inactive; PKD1 inh: -3; Insulin prom inh: -43; Insulin prom inh cell count: 134; HSV replic up primary fold: 0.95

Results for CCCOc1ccc(N2C(=O)CC(N(CCc3ccc(OC)c(OC)c3)C(=O)c3ccccc3)C2=O)cc1 (stereo unspecified) ?
HSV replic up: inactive; RGS16-Gao HTS: 100; HSV replic up primary fold: 1

Results for COCCNC(C(=O)Nc1ccc(C)cc1[N+](=O)[O-])c1ccccc1 (stereo unspecified) ?
HSV replic up: inactive; RGS16-Gao HTS: 102; PKD1 inh: 4; Insulin prom inh: 8; Insulin prom inh cell count: 153; HSV replic up primary fold: 1

What do the screens show for `O=C(Nc1ccccc1F)Nc1ccc([N+](=O)[O-])cc1Cl`?
HSV replic up: inactive; RGS16-Gao HTS: 105; PKD1 inh: -6; HSV replic up primary fold: 0.92

What do the screens show for `COc1ccc(CNC(=O)Nc2ccc(OC)cc2)cc1`?
GALR2 ag: -0.5; HSV replic up: inactive; RGS16-Gao HTS: 102; PKD1 inh: -1; Insulin prom inh: 60; Insulin prom inh cell count: 73; HSV replic up primary fold: 0.93

How did O=C(NCc1ccccn1)c1cc(-c2ccc(Cl)cc2)oc1C(F)(F)F do in these assays?
HSV replic up: inactive; RGS16-Gao HTS: 100; HSV replic up primary fold: 0.99

Results for COCCNC(=O)c1ccccc1-c1ccccc1C(=O)O ?
GALR2 ag: -2.0; HSV replic up: inactive; RGS16-Gao HTS: 100; PKD1 inh: -5; Insulin prom inh: -92; Insulin prom inh cell count: 75; HSV replic up primary fold: 0.91

Results for Cc1ccc2nc(NC(=O)c3ccc(-c4nc5ccccc5s4)s3)sc2c1 ?
GALR2 ag: -0.1; RGS16-Gao HTS: 104; PKD1 inh: -4; Insulin prom inh: -25; Insulin prom inh cell count: 104

Results for CC(=O)c1c(C)[nH]c(C(=O)OCC(=O)Nc2cc(S(=O)(=O)N3CCCCC3)ccc2C)c1C ?
GALR2 ag: -0.7; HSV replic up: inactive; RGS16-Gao HTS: 116; PKD1 inh: -1; Insulin prom inh: -17; Insulin prom inh cell count: 130; HSV replic up primary fold: 0.89

Results for CCCOc1ccccc1C1NC(=O)NC(C)=C1C(=O)OCc1ccccc1 (stereo unspecified) ?
GALR2 ag: -2.1; HSV replic up: inactive; RGS16-Gao HTS: 71; PKD1 inh: 1; Insulin prom inh: 19; Insulin prom inh cell count: 101; HSV replic up primary fold: 0.83

Results for CCCCn1cnc(C(=O)OCC)c1N ?
GALR2 ag: -0.3; HSV replic up: inactive; RGS16-Gao HTS: 105; PKD1 inh: -13; Insulin prom inh: -21; Insulin prom inh cell count: 83; HSV replic up primary fold: 1

What do the screens show for `Cc1cc(Nc2ccc(C(C)C)cc2)n2ncnc2n1`?
GALR2 ag: -1.2; HSV replic up: inactive; RGS16-Gao HTS: 37; PKD1 inh: 0; Insulin prom inh: -14; Insulin prom inh cell count: 130; HSV replic up primary fold: 0.92

Results for CCC(Sc1nccn1C)C(=O)Nc1cccc2ccccc12 (stereo unspecified) ?
GALR2 ag: -2.6; HSV replic up: inactive; RGS16-Gao HTS: 101; PKD1 inh: 6; HSV replic up primary fold: 0.87

How did COc1ccc(N(CC(=O)N/N=C/c2ccco2)S(=O)(=O)c2ccccc2)cc1 do in these assays?
GALR2 ag: -0.9; HSV replic up: inactive; RGS16-Gao HTS: 98; PKD1 inh: 2; Insulin prom inh: 14; Insulin prom inh cell count: 92; HSV replic up primary fold: 0.88

How did CC(C)N1CCc2c(sc(NC(=O)c3ccc(S(=O)(=O)N4CCOCC4)cc3)c2C(N)=O)C1 do in these assays?
GALR2 ag: -0.9; HSV replic up: inactive; RGS16-Gao HTS: 99; PKD1 inh: -4; Insulin prom inh: 30; Insulin prom inh cell count: 137; HSV replic up primary fold: 1

What do the screens show for `Cn1c(N)c(C(=O)COC(=O)CCC2CCCC2)c(=O)n(C)c1=O`?
HSV replic up: inactive; RGS16-Gao HTS: 100; PKD1 inh: 1; Insulin prom inh: -32; Insulin prom inh cell count: 155; HSV replic up primary fold: 0.98

How did Cn1nc(C(F)(F)F)c(C(=O)Nc2ccc(F)cc2F)c1Sc1cccc(Cl)c1 do in these assays?
GALR2 ag: -1.7; HSV replic up: inactive; RGS16-Gao HTS: 106; PKD1 inh: -3; Insulin prom inh: 34; Insulin prom inh cell count: 94; HSV replic up primary fold: 1

What do the screens show for `COCCCNC(=S)NNC(=O)c1ccccn1`?
HSV replic up: inactive; RGS16-Gao HTS: 99; PKD1 inh: 6; Insulin prom inh: 0; Insulin prom inh cell count: 91; HSV replic up primary fold: 0.9

How did COC(=O)c1ccc(NC(=O)CSc2ccccn2)cc1 do in these assays?
GALR2 ag: 0.1; HSV replic up: inactive; RGS16-Gao HTS: 100; PKD1 inh: -8; Insulin prom inh: -11; Insulin prom inh cell count: 57; HSV replic up primary fold: 0.88

What do the screens show for `COc1cc(/C=C(/C(=O)c2cccs2)c2nc3ccccc3[nH]2)cc(OC)c1O`?
GALR2 ag: -3.1; HSV replic up: inactive; RGS16-Gao HTS: 106; PKD1 inh: 7; Insulin prom inh: -140; Insulin prom inh cell count: 43; HSV replic up primary fold: 0.59

What do the screens show for `COc1ccccc1NC(=O)C(C)N1CCN(C/C=C/c2ccccc2)CC1` (stereo unspecified)?
GALR2 ag: -0.6; HSV replic up: inactive; RGS16-Gao HTS: 100; PKD1 inh: -5; Insulin prom inh: 42; Insulin prom inh cell count: 97; HSV replic up primary fold: 0.72

Results for CC(C)(C)S(=O)(=O)c1ccccc1C(=O)O ?
GALR2 ag: -0.5; HSV replic up: inactive; RGS16-Gao HTS: 100; PKD1 inh: -12; HSV replic up primary fold: 0.88

Results for Cc1ccc(S(=O)(=O)N[C@H](C(=O)N2CCC(C(=O)N3CCC[C@H]3C(=O)O)CC2)C(C)C)cc1 ?
GALR2 ag: -1.3; HSV replic up: inactive; RGS16-Gao HTS: 99; PKD1 inh: -4; Insulin prom inh: 18; Insulin prom inh cell count: 117; HSV replic up primary fold: 0.98

How did CCNC(=S)NNC(=O)c1cc(-c2cccc(C)c2)nc2ccccc12 do in these assays?
GALR2 ag: -0.1; HSV replic up: inactive; RGS16-Gao HTS: 94; PKD1 inh: -6; Insulin prom inh: 9; Insulin prom inh cell count: 67; HSV replic up primary fold: 0.77

How did O=C(O)C1CCCN1C(=O)OCC1c2ccccc2-c2ccccc21 (stereo unspecified) do in these assays?
HSV replic up: inactive; RGS16-Gao HTS: 98; HSV replic up primary fold: 0.71

What do the screens show for `Cc1cc(C)n(CC2CC(=O)N(c3ccc(C)c(Cl)c3)C2=O)n1` (stereo unspecified)?
GALR2 ag: -0.3; HSV replic up: inactive; RGS16-Gao HTS: 93; PKD1 inh: 0; HSV replic up primary fold: 1.2

How did CCN=c1scc(C)n1/N=C/c1ccc(O)c(O)c1O do in these assays?
GALR2 ag: -2.3; HSV replic up: inactive; RGS16-Gao HTS: 55; PKD1 inh: -1; Insulin prom inh: 10; Insulin prom inh cell count: 71; HSV replic up primary fold: 0.82

What do the screens show for `COCCn1c(-c2ccc(Cl)cc2Cl)nc2c(c(=O)c3ccccc3n2C)c1=O`?
GALR2 ag: -0.9; HSV replic up: inactive; RGS16-Gao HTS: 122; PKD1 inh: -12; Insulin prom inh: -44; Insulin prom inh cell count: 55; HSV replic up primary fold: 0.97

What do the screens show for `CCOc1ccc2nc(NC(=O)CSC3=NCCS3)sc2c1`?
GALR2 ag: -0.9; HSV replic up: inactive; RGS16-Gao HTS: 97; PKD1 inh: 1; HSV replic up primary fold: 0.81

What do the screens show for `Cn1cnnc1Sc1ccc(C(=O)OCC(=O)NCC(F)(F)F)cc1[N+](=O)[O-]`?
HSV replic up: inactive; RGS16-Gao HTS: 98; HSV replic up primary fold: 0.96

Results for CCOC(=O)C1C(=O)NC(SC)=C(C#N)C1c1ccccc1F (stereo unspecified) ?
GALR2 ag: -1.9; HSV replic up: inactive; RGS16-Gao HTS: 94; PKD1 inh: 2; Insulin prom inh: -39; Insulin prom inh cell count: 84; HSV replic up primary fold: 0.78

Results for CSc1ccccc1NC(=O)CSc1n[nH]c(N)n1 ?
HSV replic up: inactive; RGS16-Gao HTS: 96; PKD1 inh: 2; Insulin prom inh: 18; Insulin prom inh cell count: 153; HSV replic up primary fold: 0.95

Results for Cc1ccc(S(=O)(=O)N2CCOCC2)cc1C(=O)OCC(=O)Nc1ccc2c(c1)OCO2 ?
GALR2 ag: -0.4; HSV replic up: inactive; RGS16-Gao HTS: 76; PKD1 inh: 4; Insulin prom inh: 53; Insulin prom inh cell count: 88; HSV replic up primary fold: 0.98

How did Cc1nc(NCC2CCCO2)c2oc3ccccc3c2n1 (stereo unspecified) do in these assays?
GALR2 ag: -0.7; HSV replic up: inactive; RGS16-Gao HTS: 101; PKD1 inh: -3; Insulin prom inh: 70; Insulin prom inh cell count: 108; HSV replic up primary fold: 1.2

How did Cc1cccc(OCCCCCn2ccnc2)c1 do in these assays?
GALR2 ag: 0.1; HSV replic up: inactive; RGS16-Gao HTS: 113; PKD1 inh: -6; Insulin prom inh: -42; Insulin prom inh cell count: 168; HSV replic up primary fold: 0.99

How did O=C(NCc1ccc(F)cc1)C1CCC(=O)N1CCc1ccccc1 (stereo unspecified) do in these assays?
GALR2 ag: -1.2; HSV replic up: inactive; RGS16-Gao HTS: 108; PKD1 inh: -5; HSV replic up primary fold: 1

Results for CCCCCC/C=C/c1ccc([C@H]2[C@H]3C=CC[C@@H](C)[C@@H]3C(=O)N2Cc2ccccc2)c(F)c1 ?
HSV replic up: inactive; RGS16-Gao HTS: 106; HSV replic up primary fold: 1

Ordered by SMILES length (ascending): part of the list above
Results for CCC(Sc1nccn1C)C(=O)Nc1cccc2ccccc12 (stereo unspecified) ?
GALR2 ag: -2.6; HSV replic up: inactive; RGS16-Gao HTS: 101; PKD1 inh: 6; HSV replic up primary fold: 0.87

Results for CCOC(=O)C1C(=O)NC(SC)=C(C#N)C1c1ccccc1F (stereo unspecified) ?
GALR2 ag: -1.9; HSV replic up: inactive; RGS16-Gao HTS: 94; PKD1 inh: 2; Insulin prom inh: -39; Insulin prom inh cell count: 84; HSV replic up primary fold: 0.78

What do the screens show for `Cc1cc(C)n(CC2CC(=O)N(c3ccc(C)c(Cl)c3)C2=O)n1` (stereo unspecified)?
GALR2 ag: -0.3; HSV replic up: inactive; RGS16-Gao HTS: 93; PKD1 inh: 0; HSV replic up primary fold: 1.2

How did O=C(NCc1ccccn1)c1cc(-c2ccc(Cl)cc2)oc1C(F)(F)F do in these assays?
HSV replic up: inactive; RGS16-Gao HTS: 100; HSV replic up primary fold: 0.99

(listing goes on)
What do the screens show for `COc1ccccc1CN1CC(C(=O)NCc2cccnc2)CC1=O` (stereo unspecified)?
GALR2 ag: -0.7; HSV replic up: inactive; RGS16-Gao HTS: 110; PKD1 inh: -5; Insulin prom inh: 43; Insulin prom inh cell count: 85; HSV replic up primary fold: 0.87

What do the screens show for `Cc1ccsc1/C=N\NC(=O)c1cc(C(C)(C)C)[nH]n1`?
HSV replic up: inactive; RGS16-Gao HTS: 101; PKD1 inh: 1; Insulin prom inh: 0; Insulin prom inh cell count: 98; HSV replic up primary fold: 1

What do the screens show for `O=C(c1ccccc1)c1cc2ccccc2o1`?
GALR2 ag: -0.8; HSV replic up: inactive; RGS16-Gao HTS: 138; PKD1 inh: -8; Insulin prom inh: -3; Insulin prom inh cell count: 103; HSV replic up primary fold: 0.96

Results for CCc1noc(C)c1C(=O)N1CCCC(C(=O)c2cc(F)ccc2OC)C1 (stereo unspecified) ?
HSV replic up: inactive; RGS16-Gao HTS: 98; PKD1 inh: -1; HSV replic up primary fold: 0.99

How did Cc1cc(N2C(=O)C(=O)/C(=C(/O)c3ccc(Cl)cc3)C2c2cccc(Br)c2)no1 (stereo unspecified) do in these assays?
GALR2 ag: -0.3; HSV replic up: inactive; RGS16-Gao HTS: 97; PKD1 inh: -3; Insulin prom inh: -63; Insulin prom inh cell count: 113; HSV replic up primary fold: 0.98
